Bioassay records: PubChem BioAssay, SRMLSC
H5N1 antiviral = antiviral screen in MDCK cells, H5N1 avian flu; cytopathic effect, luminescence, 72 h; hits give high values; no value below 0 was filed and about half of the inactive calls have no number; reference of the scale not given here; inhibition, % at 50 µM; 96,000 tested, 0.07% active; AID 740; in the data active = inhibition above about 25%
Starred values were filed as active, the others as inactive; i = inactive. A portion of the library (hit frequency here may not be typical).

The first 22 compounds (preview)
SMILES | H5N1 antiviral
O=C(Nc1ccc(Cl)cc1)O/N=C(\c1ccccc1)c1ccccn1 | i
C=CCN(CC=C)C(=O)C(=O)c1cc(C)n(-c2ccc([N+](=O)[O-])cc2)c1C | 1.8
CC(C)N(C(=O)CSc1nnc(CN2CCCCCC2=O)n1-c1ccccn1)C(C)C | 0.1
CCC(C)C(=O)Nc1cc(OC)c(OC)cc1C(=O)O (configuration not stated) | i
CCCOc1ccc(C(=O)Nc2ccc(Cl)cn2)cc1 | i
CCCOc1ccc(NC2=CC(=O)CC(C)(C)C2)cc1 | i
O=C(COc1ccccc1)c1cn(CC(=O)N2CCOCC2)c2ccccc12 | i
CC1CCCN(C(=O)CCS(=O)(=O)Cc2ccccc2)C1 (configuration not stated) | i
N#CC1=C(N)N(c2ccccc2)C(c2ccco2)C1(C#N)C#N (configuration not stated) | i
CCCC(=O)Nc1c2c(nn1-c1ccc(C)cc1C)CSC2 | i
CC1(C)C(=O)Nc2ccccc2N1C(=O)COC(=O)C12CC3CC(CC(O)(C3)C1)C2 | i
CCN(CC)S(=O)(=O)c1ccc(C(=O)OCC(=O)N2CCN(C(=O)c3ccco3)CC2)cc1 | i
COc1ccccc1OCCSc1nnc(C)n1-c1ccccc1 | 2.1
CCOC(=O)N1CCN(C(=O)c2cnn3c(C)c(Cc4ccc(C)cc4)c(C)nc23)CC1 | 1.8
CCOc1cc(CNc2ccc3c(c2)CCC3)ccc1OC | i
CCOC(=O)c1c(N)nn(C(=O)C(C)C)c1-c1ccc(OC)cc1 | 7.7
CC(=O)Nc1cnc2ccccc2n1 | 0.7
CC1=C(C(=O)NCc2ccccc2)C(c2cccnc2)n2ncnc2N1 (configuration not stated) | 0.1
Clc1ccc(-n2cccc2/C=N/n2cnnc2)cc1 | i
CC(=O)c1c(N2CCOCC2)nc(=S)n(Cc2ccccc2)c1C | 0.3
CSc1ccc(CNc2ccc(C)cc2)cc1 | 0.0
COc1ccc(N2CCN(c3nc4c(c(=O)n(C)c(=O)n4C)n3Cc3ccccc3)CC2)cc1 | 13.4

All compounds of this part (from the top)
SMILES | H5N1 antiviral
O=C(Nc1ccc(Cl)cc1)O/N=C(\c1ccccc1)c1ccccn1 | i
C=CCN(CC=C)C(=O)C(=O)c1cc(C)n(-c2ccc([N+](=O)[O-])cc2)c1C | 1.8
CC(C)N(C(=O)CSc1nnc(CN2CCCCCC2=O)n1-c1ccccn1)C(C)C | 0.1
CCC(C)C(=O)Nc1cc(OC)c(OC)cc1C(=O)O (configuration not stated) | i
CCCOc1ccc(C(=O)Nc2ccc(Cl)cn2)cc1 | i
CCCOc1ccc(NC2=CC(=O)CC(C)(C)C2)cc1 | i
O=C(COc1ccccc1)c1cn(CC(=O)N2CCOCC2)c2ccccc12 | i
CC1CCCN(C(=O)CCS(=O)(=O)Cc2ccccc2)C1 (configuration not stated) | i
N#CC1=C(N)N(c2ccccc2)C(c2ccco2)C1(C#N)C#N (configuration not stated) | i
CCCC(=O)Nc1c2c(nn1-c1ccc(C)cc1C)CSC2 | i
CC1(C)C(=O)Nc2ccccc2N1C(=O)COC(=O)C12CC3CC(CC(O)(C3)C1)C2 | i
CCN(CC)S(=O)(=O)c1ccc(C(=O)OCC(=O)N2CCN(C(=O)c3ccco3)CC2)cc1 | i
COc1ccccc1OCCSc1nnc(C)n1-c1ccccc1 | 2.1
CCOC(=O)N1CCN(C(=O)c2cnn3c(C)c(Cc4ccc(C)cc4)c(C)nc23)CC1 | 1.8
CCOc1cc(CNc2ccc3c(c2)CCC3)ccc1OC | i
CCOC(=O)c1c(N)nn(C(=O)C(C)C)c1-c1ccc(OC)cc1 | 7.7
CC(=O)Nc1cnc2ccccc2n1 | 0.7
CC1=C(C(=O)NCc2ccccc2)C(c2cccnc2)n2ncnc2N1 (configuration not stated) | 0.1
Clc1ccc(-n2cccc2/C=N/n2cnnc2)cc1 | i
CC(=O)c1c(N2CCOCC2)nc(=S)n(Cc2ccccc2)c1C | 0.3
CSc1ccc(CNc2ccc(C)cc2)cc1 | 0.0
COc1ccc(N2CCN(c3nc4c(c(=O)n(C)c(=O)n4C)n3Cc3ccccc3)CC2)cc1 | 13.4
COc1ccc(C(=O)Nc2ccc(-c3ccc(C)o3)cc2)cc1S(=O)(=O)N1CCOCC1 | i
CC(C)CC(OC(=O)c1cccs1)C(=O)NCc1cccs1 (configuration not stated) | i
CCOC(=O)c1sc(NC(=O)CSc2nc(-c3ccco3)cc(C(F)(F)F)n2)c(C#N)c1C | 0.7
FC(F)(F)c1nnc(-c2ccccc2)nc1Sc1ccccc1 | i
COc1ccc(CNc2nc3nc(-c4ccccc4)cc(=O)n3[nH]2)cc1OC | 3.2
CCS(=O)(=O)Nc1ccc2c(c1)N(C(C)=O)c1ccccc1CC2 | 0.8
COc1ccccc1-n1c(SCC(=O)N2CCCC2)nc2cccnc21 | 0.0
O=C1CC(N2CCC(C(=O)N3CCCCC3)CC2)C(=O)N1 (configuration not stated) | i
COc1ccc(-c2nc(CS(=O)(=O)CC(=O)Nc3ccc(Cl)cc3)c(C)o2)cc1 | i
CCSc1nnc(NC(=O)C2CC=CCC2C(=O)O)s1 (configuration not stated) | i
Cc1oc(-c2ccccc2)nc1C(=O)OCC(=O)NC(=O)NCC(C)C | 0.2
O=C(c1cccc(S(=O)(=O)NCCOc2ccccc2)c1)N1CCN(c2ncccn2)CC1 | 1.7
COc1ccc(NC(=O)CN(c2ccc(C)cc2)S(C)(=O)=O)c(OC)c1 | 2.6
COc1cccc(/C=N\NC(=O)c2sc(N)nc2C)c1OC | 0.3
O=C(CSc1nnc(-c2c[nH]c3ccccc23)o1)c1ccccc1 | 2.4
CCOCCCNCc1ccc(OC)cc1 | i
COC(=O)c1oc2ccc(Br)cc2c1NC(=O)c1ccccc1 | 0.5
CCCNS(=O)(=O)c1ccc(Oc2ncc(C(F)(F)F)cc2Cl)cc1 | i
O=C(CCCn1c(=O)oc2ccccc21)Nc1cccnc1 | 0.2
CCOC(=O)N1CCC2(CC1)CC(=O)c1c(ccc3oc(C(=O)O)c(C)c13)O2 | 0.1
[O-][n+]1onc2c1CCc1nnccc1-2 | 0.2
O=[N+]([O-])c1ccc(Oc2ccc(F)cc2Br)c2ccncc12 | i
CC(C)OC(=O)CSc1nc2cccnc2n1-c1ccc(F)cc1 | i
CCOC(=O)C1CCCN(c2ccc(NC(=O)c3snc4c(=O)[nH]c(C)nc34)cc2)C1 (configuration not stated) | i
COc1ccc(C(CC(=O)NCc2ccco2)c2ccc(F)cc2)cc1 (configuration not stated) | i
COC(=O)c1ccccc1NC(=O)CSc1ccccn1 | 0.6
CCOC(=O)C1=C(CSc2nc3c(cc2C#N)CN(C)CC3)OC(N)=C(C#N)C1c1ccc(Cl)cc1 (configuration not stated) | i
C=CCOC(=O)C1=C(C)NC(=O)NC1c1ccc(Cl)cc1 (configuration not stated) | 0.6
O=C(NNC(=O)c1ccc2c(c1)OCO2)NC1CCCCC1 | 0.3
CCOC(=O)c1c(C)[nH]c(C)c1C(=O)CSc1ncccn1 | i
COC(=O)c1sc(=S)n(-c2ccc(Cl)cc2)c1C | 1.3
CCC(C)NC(=O)CCCCCn1c(=O)[nH]c2cc(OC)c(OC)cc2c1=O (configuration not stated) | i
CC(C)NC(C)C(=O)C12CC3CC(CC(C3)C1)C2 (configuration not stated) | 0.6
C=C(C)Cn1c(SCC)nc2ccccc2c1=O | 1.4
Cc1cc(C)n2nc(SC3CCCCN(C(=O)c4ccc(F)cc4)C3=O)nc2n1 (configuration not stated) | 1.6
Cc1cccc(C)c1OCC(=O)Nn1c(C)nc2ccccc2c1=O | 0.1
CCOC(=O)c1cnn(-c2cc(Oc3cccc(C)c3)ncn2)c1N | 0.6
CC(=O)Nc1ccc(Oc2cnc3ccccc3n2)cc1 | 0.7

2 compounds drawn at random from the list so far, as already listed:
SMILES | H5N1 antiviral
FC(F)(F)c1nnc(-c2ccccc2)nc1Sc1ccccc1 | i
CCOc1cc(CNc2ccc3c(c2)CCC3)ccc1OC | i

Following part:
SMILES | H5N1 antiviral
Cc1cc(S(=O)(=O)Nc2ccc3ccccc3c2)c(C)s1 | i
CC(C)CCNC(=O)C1CCCN(S(=O)(=O)c2ccc(F)cc2)C1 (configuration not stated) | i
O=C1CC(=O)N(Cc2ccco2)C(=O)N1 | i
COc1ccc(Cl)cc1S(=O)(=O)N1CCN(c2ccc(F)cc2)CC1 | i
O=C1OC(C(=O)Nc2nccs2)Cc2ccccc21 (configuration not stated) | 1.2
O=C(c1cccnc1)N1CCN(S(=O)(=O)c2ccc(S(=O)(=O)N3CCCC3)cc2)CC1 | 1.6
Cc1ccc(NC(=O)CCC(=O)NNC(=O)c2cccs2)cc1C | 0.1
COc1ccc(N2CCN(C(=O)c3ccc(OCC4CCCO4)cc3)CC2)cc1 (configuration not stated) | i
O=C(NCc1cccs1)C1CC(=O)N(c2ccc(F)cc2)C1 (configuration not stated) | i
O=c1cc(N2CCN(c3ccccc3F)CC2)[nH]c(=O)n1-c1ccc(Br)cc1 | i
COc1ccccc1OCC(O)Cn1c(=N)n(Cc2ccccc2)c2ccccc21 (configuration not stated) | i
Nc1nc(SCc2ccccc2)[nH]c(=O)c1-c1ccccc1 | i
CC1CCN(S(=O)(=O)c2ccc3[nH]c(=O)c(=O)[nH]c3c2)CC1 | 0.7
Cc1nc2ccc(NC(=O)Cc3ccsc3)cc2s1 | i
COc1cccc(-n2nnnc2S(C)(=O)=O)c1 | i
O=C(Nc1ccccc1C(=O)N1CCN(c2ccccc2)CC1)c1ccco1 | 0.2
O=C(CSc1nnc(-c2ccccn2)n1Cc1ccccc1)Nc1ccc2c(c1)OCO2 | i
CC1CC(C)CN(c2nc3c(c(=O)n(C)c(=O)n3C)n2C)C1 (configuration not stated) | 3.2
O=S(=O)(c1ccccc1)N1CCN(Cc2cccc(Cl)c2)CC1 | 0.7
O=C(CN(c1ccc2c(c1)OCCO2)S(=O)(=O)c1ccccc1)Nc1ccc2c(c1)OCO2 | 1.1
CCn1c(SCC(=O)Nc2ccc3c(c2)OCO3)nc2c1c(=O)n(C)c(=O)n2C | 1.0
COc1ccc(N(C(=O)C(C)C)S(=O)(=O)c2ccc(Cl)cc2)cc1 | i
CCOC(=O)c1oc2cc(O)c(CC)cc2c(=O)c1-c1ccc2c(c1)OCCO2 | 2.2
CCOC(=O)c1sc(NC(=O)c2ccco2)nc1-c1ccccc1 | i
COc1cccc(CNC(=O)C2CCCN(S(=O)(=O)c3cnc[nH]3)C2)c1 (configuration not stated) | 0.4
CCOC(=O)N1CCC(NC(=O)c2cc(S(=O)(=O)N3CCC4(CC3)OCCO4)ccc2F)CC1 | i
Cc1ccc(S(=O)(=O)NCC(=O)N2CCCC2)cc1 | 1.8
O=C(Nc1ccon1)c1sc2cc(F)ccc2c1Cl | i
CN(/C=C/C(=O)C(F)(F)F)Cc1ccccc1 | i
CCc1nc2ccc(C)cc2c(C(=O)NC2CCCCC2C)c1C (configuration not stated) | i
O=c1[nH]ncc2c3ccccc3n(Cc3ccccc3)c12 | 1.9
C=CCc1c(C)nn(CC(=O)O)c1-c1ccccc1 | 0.2
CCc1nnc(NC(=O)CCN2C(=O)CCC2=O)s1 | i
CCOC(=O)N1CCN(C(=O)COc2ccc(Br)cc2Cl)CC1 | i
CCOc1cc(C2C(C(=O)OC)=C(C)N=C3SCCC(=O)N32)ccc1OC(C)=O (configuration not stated) | i
COCCn1c(-c2ccccc2)nc2oc3cc(OC)ccc3c(=O)c2c1=O | 2.2
CC(C)CNC(=O)c1ccccc1NC(=O)c1ccc(CN2CCOCC2)cc1 | 0.0
O=C(c1ccccc1F)N1CCN(Cc2cccc(Cl)c2)CC1 | i
CCOc1ccc(N(Cc2cc3cc(OC)ccc3[nH]c2=O)C(=O)C2CCCO2)cc1 (configuration not stated) | 0.2
COc1ccc(S(=O)(=O)N2CCCCC2)cc1C(C)C | 2.3
O=S(=O)(Cc1ccc(Cl)cc1)c1ccccc1-c1nnc(-c2ccc(Cl)cc2)o1 | 0.2
c1ccc(-c2nc(NCCCN3CCOCC3)c3ccccc3n2)cc1 | i
COc1ccc(N(CC(=O)NCCSC(C)(C)C)S(C)(=O)=O)c(OC)c1 | 0.7
COc1cc(NS(C)(=O)=O)c(OC)cc1NC(=O)c1ccccc1 | 1.7
O=C(CCN1CCCCC1)c1ccc2c(c1)OCO2 | 1.2
COc1ccc(C2/C(=C(\O)c3ccc4c(c3)OCCO4)C(=O)C(=O)N2CCCN(C)C)cc1 (configuration not stated) | 0.1
COc1ccc(N2CCN(Cc3nc4ccccc4c(=O)[nH]3)CC2)cc1 | i
Cc1c(Cl)cccc1NC(=O)COc1ccc(S(=O)(=O)N2CCOCC2)cc1 | i
COC(=O)CC1C(=O)NCCN1C(=O)c1ccccc1 (configuration not stated) | i
CCCCn1c(SCC(=O)NCC2CCCO2)nc2ccc(N3CCOCC3)cc2c1=O (configuration not stated) | 0.4
CC(C)CN(C(=O)COC(=O)C1c2ccccc2Oc2ccccc21)C1CCS(=O)(=O)C1 (configuration not stated) | i
O=c1[nH]c(=O)n(Cc2ccc(F)cc2)c(O)c1C=NCc1cccnc1 | i
Cc1ccc(-c2nnn(Cc3nc4ccccc4s3)n2)cc1 | i
O=C(CSc1ncn[nH]1)c1ccco1 | 0.1
COc1ccc2cc3c(N)nn(C(=O)Cc4ccccc4OC)c3nc2c1 | 12.2
COC(=O)Cn1c(C)nc2c(sc3nc(C)cc(C)c32)c1=O | 1.4
Cc1onc(-c2ccccc2Cl)c1C(=O)NCc1ccc(N2CCCC2=O)cc1 | 0.1
COC(=O)c1sccc1NC(=O)c1cc(-c2ccc(C)cc2)nc2ccccc12 | 0.2
CCN(CCCNC(=O)CC1Oc2ccc(C)cc2NC1=O)Cc1ccccc1 (configuration not stated) | i
CC(C)(C)OC(=O)NCC(=O)N1CCC(C(=O)O)CC1 | i

(cont.)
SMILES | H5N1 antiviral
COc1cc(C(=O)NCc2ccc3c(c2)OCO3)ccc1OCc1c(C)noc1C | i
CCCCOC(=O)Nc1ccc(C(=O)OC)cc1 | i
Cc1ccc(-c2ccc(=O)n(CC(=O)NCCN(C)C)n2)cc1 | 0.4
O=C(COC(=O)c1ccccn1)Nc1ccc(S(=O)(=O)N2CCOCC2)cc1 | i
CCN1C2=NCCCN2c2ccccc21 | 0.4
O=S(CCc1ccncc1)Cc1ccccc1 (configuration not stated) | i
CCn1c2ccccc2c2nnc(SCC(=O)Nc3ccc4c(c3)OCO4)nc21 | i
O=C(CNS(=O)(=O)c1cccs1)N1CCc2ccccc2C1 | 1.4
C=C(C)c1cccc(C(C)(C)NC(=O)N2CCN(CC(N)=O)CC2)c1 | i
